# CSC inhib – blocks cancer stem cells; cancer stem cell-like cells viability, luminescence; inhibition, % at 7.5 µM; 300,000 compounds, 1.1% hits;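 active = mean at 75% or more and at least half the replicates too; tested in HMLE shEcad cells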;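 also: 0% = median of negative and 100% = median of positive control wells; the first replicate is given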
# HIV Env fusion – inhibitors of HIV Env-mediated cell fusion; AID 651610; inhibition, % at 12.3 µM; HeLa-JRFL Env/CEM21 cell fusion, luciferase; 360,000 compounds, 1.1% hits;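 active = mean replicate inhibition score of at least 50 and every replicate individually at or above 50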;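 also: 0% = plate neutral controls and 100% = maraviroc near 300 nM; one replicate is shown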
# PABP FP inh – PABP-poly(A) binding inhibition. 290,000 compounds, 1% hits. PABP-poly(A) RNA binding, fluorescence polarization. inhibition, % at 35 µM. AID 2014;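 active = 50% or more with normal probe brightness, or confirmed in later tests; about a fifth of its hits are not listed in these tables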;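 also: calls also rest on retests at 20 µM and on dose response follow-up; controls were probe without protein and protein plus probe with vehicle; some compounds called inactive have numbers as strong as hits; many hits fall short of the cut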
# Target sequence (P11940 whole entry, looked up): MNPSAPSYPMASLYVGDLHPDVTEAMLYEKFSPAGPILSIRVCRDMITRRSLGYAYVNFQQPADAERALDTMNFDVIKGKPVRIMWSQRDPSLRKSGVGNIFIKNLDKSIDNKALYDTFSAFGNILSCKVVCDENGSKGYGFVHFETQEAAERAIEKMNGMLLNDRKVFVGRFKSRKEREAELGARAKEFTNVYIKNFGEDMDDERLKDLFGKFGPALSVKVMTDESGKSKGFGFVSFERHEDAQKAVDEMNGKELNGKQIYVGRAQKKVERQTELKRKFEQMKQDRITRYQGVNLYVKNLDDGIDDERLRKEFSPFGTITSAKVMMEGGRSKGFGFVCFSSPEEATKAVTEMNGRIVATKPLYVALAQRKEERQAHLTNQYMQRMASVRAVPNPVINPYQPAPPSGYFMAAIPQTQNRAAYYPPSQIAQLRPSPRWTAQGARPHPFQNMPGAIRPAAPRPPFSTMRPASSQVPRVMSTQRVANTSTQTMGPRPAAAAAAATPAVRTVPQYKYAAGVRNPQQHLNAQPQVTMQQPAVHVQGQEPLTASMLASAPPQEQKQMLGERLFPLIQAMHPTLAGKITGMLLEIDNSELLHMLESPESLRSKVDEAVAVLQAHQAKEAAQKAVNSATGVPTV
# Yeast UUG start – yeast start codon fidelity modulation | S. cerevisiae UUG-firefly luciferase reporter, luminescence/redox ratio | activity score, % at 18.7 µM | 350,000 compounds, 0.13% hits | AID 602363;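 active = replicate mean at a twofold rise or more, about +100% in these data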;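 also: firefly luciferase made from a UUG start codon reports start codon fidelity; reporter light over untreated wells divided by growth signal over untreated wells; some hits fall short of that in this replicate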
# MT1-MMP act inh – blocks activation of human MT1-MMP | HT1080 RFP-PRO-GFP cells, GFP/RFP ratio fluorescence, overnight; percent of plate control window, DMSO zero | GFP/RFP ratio change, % at 20 µM | 360,000 compounds, 0.061% hits | AID 651647;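 active = GFP/RFP ratio change of at least 30% with cell ATP level not reduced by more than half and red fluorescence within 50% of control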; also: strong numbers were not always called active
#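 Test system: HT1080 RFP-PRO-GFP cells; Benchmarks: DMSO and RFP-L50D-GFP cell wells; Timing: cells overnight before dosing, compound overnight, 37 °C, 5% CO2; Compound: one 20 µM compound dose with 1% DMSO; Read-out: GFP/RFP fluorescence ratio.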
# eIF4H inh – inhibitors of RNA binding by human eIF4H; eIF4H fluorescence polarization binding assay; inhibition, % at 35 µM; 290,000 compounds, 0.94% hits;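 active = 50% or more with normal probe brightness, or confirmed in later tests; about a fifth of its hits are not listed in these tables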;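 also: calls also rest on retests at 20 µM and on dose response follow-up; 0% = protein and probe with vehicle and 100% = probe without protein; strong numbers were not always called active; many hits fall short of the cut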
# Rce1 inh – yeast Ras-converting enzyme inhibition | Q03530 | yeast membranes, quenched prenylated peptide cleavage fluorescence | calls only | 290,000 compounds, 0.27% hits | AID 2563;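 active = fall in fluorescence gain of 50% or more versus controls, with final raw signal at or below 3038400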;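 also: plate controls were neutral control wells for no effect and wells lacking membranes for full effect; tested at 10 µM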
# Target sequence (Q03530 whole entry, looked up): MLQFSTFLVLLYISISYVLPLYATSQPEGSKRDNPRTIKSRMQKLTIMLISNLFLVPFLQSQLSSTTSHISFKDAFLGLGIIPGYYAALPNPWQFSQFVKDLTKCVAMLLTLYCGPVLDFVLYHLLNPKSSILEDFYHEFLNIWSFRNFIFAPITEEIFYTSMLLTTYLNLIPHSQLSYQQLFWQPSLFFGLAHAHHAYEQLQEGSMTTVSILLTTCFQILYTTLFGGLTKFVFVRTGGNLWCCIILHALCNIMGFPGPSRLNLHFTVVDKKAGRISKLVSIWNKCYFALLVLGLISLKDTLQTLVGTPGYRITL
# MT1-MMP act inh RFP – further read-out of MT1-MMP act inh, marked with its call; RFP signal change, %; measured here: RFP expression control read;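 0 = vehicle wells; hits needed this value within 50% of zero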
# * marks the source's active call; other numbers are inactive results; i = inactive; . = no result given. Random draw from the library, and some 3% of all compounds hit somewhere here.
Compound,CSC inhib,HIV Env fusion,PABP FP inh,Yeast UUG start,MT1-MMP act inh,MT1-MMP act inh RFP,eIF4H inh,Rce1 inh
CCNC(=S)N(Cc1ccc(OC)cc1)C1CC(=O)N(c2ccc(OCC)cc2)C1=O (centres undefined),7.3,.,2.1,9.7,-2.9,-4.9,-9.4,i
O=C(NCCc1ccccc1)c1coc(=O)c(Br)c1,55.2,-194.5,-2.9,-14.2,-4.4,-3.3,11.5,i
CC(NC(=O)c1cc2c(=O)n(C)c3ccccc3c2n1C)c1ccc2c(c1)OCCO2 (centres undefined),5.4,2.7,.,-8.9,6.7,1.9,.,i
CCCCOC(=O)Nc1ccc(C(C)C)cc1,.,.,3.5,-12.7,1.7,2.3,5.5,i
COCCOC(=O)C1=C(C)OC(N)=C(C#N)C1c1ccco1 (centres undefined),-3.7,-28.5,8.9,-25.9,-4.0,4.0,14.8,i
Cc1sc2ncn(CC(=O)NCc3ccco3)c(=O)c2c1-c1ccccc1,-10.7,16.6,-15.5,.,-6.3,-1.3,10.4,i
O=C(N/N=C/c1cccnc1)c1cc(-c2ccccc2OCc2ccccc2)n[nH]1,44.7,17.3,1.3,-18.4,3.7,-3.7,-3.1,i
NC(=O)c1coc(-c2ccccc2)n1,.,-12.6,8.5,.,-9.3,3.7,-0.6,i
COc1cccc(N(CC(=O)NC2CCCCCC2)S(=O)(=O)c2ccccc2)c1,-7.6,-4.5,22.7,-10.9,-0.4,-1.9,-7.9,.
COc1ccc(NC(C)=O)cc1CNC(=O)COc1c(C)c(C)cc(C)c1C,1.4,.,-2.2,.,7.1,-1.7,-1.9,i
Cc1noc(C)c1CSc1nc2ccccc2n1C,-3.5,-77.9,2.2,-23.4,6.0,-0.4,-7.1,i
O=C(Oc1nsnc1N1CCCCC1)N1CCOCC1,5.9,.,-9.1,-34.3,4.3,2.5,4.2,i
COc1cc(/C=C/C(=O)Nc2ccncc2)cc(OC)c1OC,13.2,6.1,7.0,.,3.1,-3.6,-2.6,i
CCCCNC(=O)c1cc2cccc([N+](=O)[O-])c2[nH]1,-13.2,6.9,4.8,-5.9,0.8,-5.1,0.9,i
Cc1cc(C)n(C(=O)CSc2ccc(Cl)cc2)n1,0.3,-89.1,1.8,-18.9,3.8,3.5,-2.3,i
Cc1ccc(CNC(=O)C2CCC(=O)N2CCc2ccccc2)cc1 (centres undefined),0.8,-41.7,0.9,-8.9,-7.0,-2.3,2.0,i
Cc1cccc(Nc2nc(N)nc(CN3CCN(Cc4ccc5c(c4)OCO5)CC3)n2)c1,3.4,-2.7,-0.8,-25.9,2.0,2.0,-2.9,i
Cc1cc(OCC(=O)NCCCN2CCOCC2)c2c(C)cc(=O)oc2c1,-4.1,-18.1,-5.8,-15.0,-2.9,-0.7,9.1,i
COc1ccc(/C(O)=C2/C(=O)C(=O)N(CCCC(=O)O)C2c2ccc(OC)c(OC)c2)cc1 (centres undefined),-3.9,46.8,0.9,1.9,1.7,2.9,-3.2,i
Cc1nn(C2CCS(=O)(=O)C2)c(C)c1CN(C)C(=O)c1ccc(F)cc1 (centres undefined),.,6.5,.,10.6,11.3,-2.2,.,.
CN1CCN(c2ccccc2NC(=O)Cn2ncc3c([nH]c4ccccc43)c2=O)CC1,-7.4,8.6,0.4,-21.1,-8.6,-4.6,-8.8,i
CCCc1[nH]nc2c1C(CCc1ccccc1)C(C#N)=C(N)O2 (centres undefined),-4.2,32.3,-9.3,.,-5.9,0.9,-6.6,i
Cn1cc(Cl)c(/C=C(\C#N)S(=O)(=O)c2ccccc2)n1,-2.4,7.3,1.8,-13.4,-4.8,-0.1,-6.4,i
CCCn1nnc(NC(=O)c2ccc3ccccc3c2)n1,22.0,-24.8,10.6,.,5.1,2.3,1.8,i

# Look-ups from the entries so far:
# Under PABP FP inh, CCCCNC(=O)c1cc2cccc([N+](=O)[O-])c2[nH]1 is listed with 4.8
# Under MT1-MMP act inh RFP, CCCCOC(=O)Nc1ccc(C(C)C)cc1 is listed with 2.3

# Later entries
Compound,CSC inhib,HIV Env fusion,PABP FP inh,Yeast UUG start,MT1-MMP act inh,MT1-MMP act inh RFP,eIF4H inh,Rce1 inh
CCOC(=O)c1cnc2c(N=Nc3ccccc3)c(N)nn2c1N,-0.9,-259.5,-6.2,.,11.5,8.2,12.1,i
COc1ccc(CNC(=O)COC(=O)C2(C)CC2(Cl)Cl)cc1 (centres undefined),-9.6,.,.,-3.3,-1.4,-2.6,.,.
O=C1NC(c2ccccc2)=C(c2ccc3ccccc3n2)C(c2ccccc2)N1 (centres undefined),5.0,-26.0,-0.5,-14.8,-3.8,-1.5,0.6,.
Cc1cccc(NC(=O)CCN2CCC(C)CC2)c1,-9.6,-26.0,-2.6,-2.6,-0.8,4.7,6.8,i
COc1ccc(-n2nc(C(=O)NCC(=O)NC3CCCC(C)C3C)c3ccccc3c2=O)c(OC)c1 (centres undefined),4.1,3.7,0.0,-4.9,-1.0,-1.2,-3.3,i
O=S1(=O)CCOCCCN1Cc1ccccc1Br,-6.3,3.4,4.3,-1.0,2.0,2.2,1.7,i
COc1ccccc1/C=C1\Cc2ccccc2C1=O,6.1,-9.8,9.2,-27.2,-8.8,-6.9,-3.9,i
CCCC(=O)NC(c1ccccc1)c1c(O)ccc2ccccc12 (centres undefined),4.3,9.5,7.0,-8.8,-0.2,-8.8,-3.0,i
CC(=O)c1c(N2CCC(C(N)=O)CC2)nc(=S)n(-c2ccccc2)c1C,-5.7,-83.9,10.1,-12.5,7.5,0.8,-10.4,i
Cn1nc(C(=O)Nc2ccc3c(c2)OCCO3)cc1C(=O)O,21.7,.,15.4,-24.0,5.0,11.2,-10.9,i
COc1ccc(-c2noc3c2-c2nc(-c4ccc(Br)cc4)sc2CC3)cc1,13.3,-14.2,.,-7.9,2.4,3.0,.,i
CC(C)N1CCN(Cc2cccc(-n3cccn3)c2)CC1CCO (centres undefined),7.3,-1.1,5.3,-12.8,2.8,2.9,-1.2,i
O=C(CSC1=NNC(c2ccccn2)S1)Nc1ccc(C(F)(F)F)cc1 (centres undefined),93.4*,-4.0,-8.0,-23.7,5.2,-7.4,8.5,i
Cc1cc(C)c(C(=O)COC(=O)C2CCN(c3ccc(C(F)(F)F)cn3)CC2)cc1C,-4.9,-1.4,.,-0.9,-0.3,1.9,.,i
CCS(=O)(=O)Nc1cc2c3c(c1)CCN3C(=O)CC2,-8.7,-0.5,15.4,-14.2,-0.7,2.1,14.0,i
O=C(NCC1CC1)C1Cc2c(-c3ccc4c(c3)OCO4)ccnc2O1 (centres undefined),.,-34.5,.,-21.1,2.9,-2.7,.,.
O=C(CSc1ccc(-c2ccco2)nn1)Nc1cccc(F)c1,5.9,-4.6,-7.4,-4.0,-5.6,-18.7,7.2,i
O=c1cc(-c2ccc(O)c(O)c2)oc2c(C3O[C@H](CO)[C@@H](O)[C@H](O)[C@H]3O)c(O)cc(O)c12 (some centres undefined),-0.4,2.2,0.5,-2.7,4.5,0.0,8.9,i
O=C(NCCc1cn2ccsc2n1)C1CCCCC1,-8.2,-41.3,4.9,-7.1,-1.1,4.9,7.1,i
Cc1ccc(S(=O)(=O)Nc2c(O)ccc3ccccc23)cc1,12.5,.,.,-14.0,2.3,5.2,.,i
COc1ccc(C2(c3ccc(OC)cc3)NC(=O)N(CC(=O)NCC(F)(F)F)C2=O)cc1,.,-2.7,1.4,-4.0,0.2,-1.6,2.5,i
O=C(Nc1ccc(C(=O)N2CCOCC2)cc1)c1cccc([N+](=O)[O-])c1,0.5,-1.9,-8.1,.,-0.3,5.7,-2.4,i
O=C(NCc1ccccc1CN1CCCC1)C1CCN(S(=O)(=O)c2ccc(Cl)cc2)CC1,.,3.7,.,-1.0,-3.0,0.4,.,.
Cc1cccc(C)c1NC(=O)C(NC=O)c1ccc(N(C)C)cc1 (centres undefined),-2.3,.,-5.0,-8.2,1.7,3.8,-5.4,i
COc1cc(C)c(CN2CCC(Oc3ccc(C(=O)N4CCCC4)cc3)CC2)cc1C,14.5,28.4,-11.9,-12.1,1.8,-0.5,7.8,i
Cc1ccc(/C=N\NC(=O)Cn2c(C)nc3ccccc32)o1,-4.9,-3.1,0.0,-7.5,3.0,-2.0,6.1,i
CCOC(=O)NC(Nc1nc2ccccc2s1)(C(=O)OCC)C(F)(F)F (centres undefined),.,8.9,0.6,.,-4.7,-2.9,-8.8,i
CCN(CC)S(=O)(=O)c1ccc(C(C)NCC(=O)Nc2ccccc2C(=O)NC2CC2)cc1 (centres undefined),.,1.2,.,-22.8,5.9,-1.2,.,.
O=C1C(Cl)=C(Nc2ccc(O)cc2)C(=O)c2ccccc21,124.2*,-27.2,6.2,.,5.7,-9.0,-2.1,i
COc1ccc(Br)cc1CN1CCN(Cc2c[nH]c3ccccc23)CC1,14.3,-22.8,1.8,7.6,2.1,-0.4,1.4,i
Cc1cc(C)cc(OCC(=O)Nc2ccc(N3CCOCC3)cc2N2CCOCC2)c1,6.1,.,.,-2.1,6.9,-7.0,.,.
COc1cccc(NC(=O)Nc2ccc3c(c2)OCO3)c1,5.7,-24.2,1.2,-23.4,2.2,2.2,-16.9,i
NNc1nc2sc3c(c2c(=O)n1-c1ccccc1)CCCC3,52.5,25.0,3.8,.,-7.0,-0.3,3.6,i
O=C1Cc2cc(S(=O)(=O)N3CCN(c4cccc(Cl)c4)CC3)ccc2N1,5.0,4.7,-29.3,-6.7,-2.7,2.0,27.4,i
CN(CCc1ccccn1)C(=S)NC(=O)c1ccco1,-11.1,-5.6,-1.5,.,4.2,10.4,-2.2,i
Cc1ccc(COC(=O)c2ccc3ccccc3n2)cc1,-17.7,14.5,-8.5,-4.9,3.9,6.1,-14.0,i

# Continued; the last two above are carried over.
Compound,CSC inhib,HIV Env fusion,PABP FP inh,Yeast UUG start,MT1-MMP act inh,MT1-MMP act inh RFP,eIF4H inh,Rce1 inh
CN(CCc1ccccn1)C(=S)NC(=O)c1ccco1,-11.1,-5.6,-1.5,.,4.2,10.4,-2.2,i
Cc1ccc(COC(=O)c2ccc3ccccc3n2)cc1,-17.7,14.5,-8.5,-4.9,3.9,6.1,-14.0,i
COc1ccc(S(=O)(=O)c2c(O)c3ccc(C(=O)Nc4cccc(F)c4)cc3[nH]c2=O)cc1,-3.2,2.2,28.6,-8.9,2.9,5.5,2.4,i
O=C(CNC(=O)c1ccccc1)NCCc1ccc(O)c(O)c1,3.5,-21.9,13.6,-8.1,0.5,5.7,10.7,i
C=CCNC(=S)NNC(=O)c1ccc(Br)cc1,-9.0,-13.5,-2.2,.,4.1,-0.1,-11.1,i
Cc1ccc(-c2nnc(SCC(=O)CC(=O)Nc3ccccc3)n2C)cc1,-9.6,-254.0,5.7,-1.1,-0.6,0.4,-3.3,i
CN1C(=O)/C(=C/c2ccc3c(c2)OCO3)N=C1c1ccccc1,-33.1,-26.8,-5.6,.,-2.7,1.5,-6.3,i
CC(=O)c1ccc(NS(=O)(=O)c2ccc3c(c2)N(C(C)=O)CCO3)cc1,-10.4,-10.9,-2.4,-10.4,1.0,-2.1,-6.5,i
COc1ccc(CN(Cc2cc3cccc(C)c3n3nnnc23)C(=O)N2CCOCC2)cc1,-15.5,9.1,1.3,.,-5.4,-2.0,-11.1,i
O=C1[C@@H]2Cc3ccccc3CN2C(=O)N1c1cccc(F)c1,-7.4,-29.3,-5.7,-1.0,-0.1,-2.6,-9.5,i
C/C(=N\NS(C)(=O)=O)c1ccccc1,-6.8,-55.1,-0.6,-21.4,0.4,1.7,2.5,i
O=C(NNC(=S)Nc1ccc(F)c(Cl)c1)c1ccccc1Br,-0.7,-4.6,4.1,-33.0,2.4,1.5,5.7,i

# Assay outcomes: PubChem, several laboratories
